AF4-AF9 inh = inhibitors of AF4 peptide binding to AF9, primary screen, biochemical, AlphaScreen, biotin-AF4 peptide, FLAG-AF9, single point. Protein AF-9 (Homo sapiens), P42568. inhibition, % at 10 µM. actives 0.47% (n = 350,000);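 active = every replicate reaching a set inhibition limit, whatever the replicate mean, cut at about 25% in these data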;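 also: 0% = plate neutral control median and 100% = total signal loss; the record names both 10 and 1 µM as test concentration; the first replicate is given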
Target sequence (P42568 whole entry, looked up): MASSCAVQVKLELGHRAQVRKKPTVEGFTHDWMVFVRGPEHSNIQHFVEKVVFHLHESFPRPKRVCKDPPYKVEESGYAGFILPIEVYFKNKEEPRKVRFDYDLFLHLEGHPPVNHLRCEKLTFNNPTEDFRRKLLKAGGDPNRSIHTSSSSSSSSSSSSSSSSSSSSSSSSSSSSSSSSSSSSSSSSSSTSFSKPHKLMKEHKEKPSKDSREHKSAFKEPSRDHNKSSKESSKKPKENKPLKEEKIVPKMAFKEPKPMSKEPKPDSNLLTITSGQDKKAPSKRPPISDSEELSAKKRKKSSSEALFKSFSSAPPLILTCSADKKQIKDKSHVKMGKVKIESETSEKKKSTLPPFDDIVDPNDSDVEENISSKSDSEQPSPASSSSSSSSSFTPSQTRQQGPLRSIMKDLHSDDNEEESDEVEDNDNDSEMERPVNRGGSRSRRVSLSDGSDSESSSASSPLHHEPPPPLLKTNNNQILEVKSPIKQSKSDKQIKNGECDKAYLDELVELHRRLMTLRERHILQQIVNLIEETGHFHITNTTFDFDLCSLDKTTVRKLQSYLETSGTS
FGF22 binding = binders of human FGF22 protein, primary screen, FGF22 synaptogenesis inhibitor project, biophysical, thermal shift, single point | Fibroblast growth factor 22 (Homo sapiens), Q9HCT0 | recombinant FGF22 thermal shift, SYPRO orange fluorescence; percent of sucrose octasulfate shift, DMSO zero | calls only at 9.99 µM | actives 1.5% (n = 340,000) | AID 651658, 2012;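 active = melting point raised past a set limit in the mean and every replicate; three in four hits are not shown here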
Target sequence (Q9HCT0 whole entry, looked up): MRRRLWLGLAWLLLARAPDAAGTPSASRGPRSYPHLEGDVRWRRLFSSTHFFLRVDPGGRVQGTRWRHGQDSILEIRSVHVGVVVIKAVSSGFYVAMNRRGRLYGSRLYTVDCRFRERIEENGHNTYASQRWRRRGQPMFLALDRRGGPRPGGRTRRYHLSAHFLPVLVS
Ecoli rRNA inh = reduced GFP signal of wild-type E. coli, primary screen, bacterial rRNA inhibitor project, GFP/RFP fluorescence, OD600, single point; AID 720706, 2013; actives 1.6% (n = 350,000); E. coli WT GFP vs humanized-ribosome RFP mutants, 24 h; active compounds read low; DMSO median 0, no signal -100; GFP signal change (wild-type ribosome), % (no concentration beside the values);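 active = significant combined selectivity score with lowered wild-type GFP, culture density cut under 30%, mutant RFP and density less affected; inactive = any of these conditions unmet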; also: one replicate is shown; some compounds called inactive have numbers as strong as hits
Ecoli rRNA inh OD600 = also measured in Ecoli rRNA inh; calls as there; OD600 change, %; measured here: OD600 growth;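 optical density of the mix in the first replicate; 0 = DMSO median and -100 = no signal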
Ecoli rRNA inh RFP = also measured in Ecoli rRNA inh; calls as there; RFP signal change, %; measured here: RFP humanized mutant strains;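 first replicate; 0 = DMSO median and -100 = no signal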
Numbers without * were called inactive; i = inactive; + = active, no number; & = joins results of further samples.

smiles | AF4-AF9 inh | FGF22 binding | Ecoli rRNA inh | Ecoli rRNA inh OD600 | Ecoli rRNA inh RFP
C[C@@H]1CN([C@H](C)CO)C(=O)c2cc(C#CCN(C)C)cnc2O[C@@H]1CN(C)C(=O)NC1CCCCC1 | -0.5 | i | 7 | 29 | -1.8
C[C@@H]1CN([C@H](C)CO)C(=O)Cc2cc(NC(=O)NC3CCCCC3)ccc2O[C@@H]1CN(C)Cc1ccc(-c2ccccc2)cc1 | -2.8 | i | 5 | 3 | 1.2
C[C@@H]1CN([C@@H](C)CO)C(=O)c2cccc(NS(C)(=O)=O)c2O[C@@H]1CN(C)C(=O)Nc1ccc(C(F)(F)F)cc1 | -1.5 | i | -9 | -10 | -1.1
C[C@@H]1CCCCO[C@H](CN(C)C(=O)Cc2ccccc2)[C@@H](C)CN([C@H](C)CO)C(=O)c2cc(NC(=O)Nc3ccccc3)ccc2O1 | 2.0&0.1 | i | 11&2 | 7&0 | 1.8&3.0
CN(C)CC(=O)Nc1ccc2c(c1)[C@@H]1C[C@H](CC(=O)NCCc3ccccc3)O[C@@H](CO)[C@@H]1O2 | -2.8 | i | 4 | -1 | -1.1
CCCC#Cc1ccc2c(c1)O[C@H](CN(C)Cc1ccc3c(c1)OCO3)[C@H](C)CN([C@@H](C)CO)S2(=O)=O | 4.4 | i | -1 | -20 | -2.3
COCC(=O)Nc1ccc2c(c1)C(=O)N(C)C[C@H](OC)[C@@H](C)CN(Cc1cncnc1)[C@@H](C)CO2 | -2.8 | i | 0 | 5 | -1.4
CCN1[C@@H]2c3ccc(C4=CCCCC4)c(=O)n3C[C@@H]2[C@@H](CO)[C@@H]1C(=O)OC | -0.4 | i | 3 | 5 | -1.5
CCC(=O)N1CC2(C1)[C@H](c1ccc(-c3cccc(OC)c3)cc1)[C@H](CO)N2C(C)=O | 0.7 | i | 0 | 1 | 0.8
C[C@@H]1CN([C@@H](C)CO)C(=O)c2cccc(NS(=O)(=O)c3ccc(Cl)cc3)c2O[C@H]1CN(C)C(=O)Nc1ccc(F)cc1 | -1.9 | i | 2 | -2 | -1.1
COc1ccc(S(=O)(=O)N(C)C[C@@H]2OCCCC[C@H](C)Oc3ccc(NS(=O)(=O)c4ccccc4)cc3C(=O)N([C@H](C)CO)C[C@H]2C)cc1 | 1.5 | i | -2 | 0 | -0.6
C[C@H](CO)N1C[C@H](C)[C@@H](CN(C)C(=O)C2CC2)Oc2cc(C#Cc3ccccc3)ccc2S1(=O)=O | 0.3 | i | -4 | -14 | 1.5
CC(C)NC(=O)Nc1cccc2c1O[C@@H](CN(C)Cc1ccc(C(=O)Nc3ccccc3N)cc1)[C@@H](C)CN([C@H](C)CO)C2=O | 0.6 | + | 5 | 3 | -3.3
C[C@@H](NC(=O)C[C@@H]1CC[C@@H](NC(=O)Cc2ccccn2)[C@@H](CO)O1)c1ccccc1 | 0.0 | i | -2 | -1 | -0.2
O=C(NCC[C@@H]1CC[C@@H](NS(=O)(=O)c2cccc(F)c2)[C@@H](CO)O1)C1CCCC1 | -3.1 | i | 5 | 4 | -8.0
CO[C@H]1CN(C)C(=O)c2cc(NC(=O)c3ccccc3F)ccc2OC[C@@H](C)N(C(C)=O)C[C@@H]1C | -0.5 | i | 3 | 6 | -0.5
NC(=O)c1ncn([C@@H]2O[C@H](CN=C3NS(=O)(=O)c4ccccc43)[C@@H](O)[C@H]2O)n1 | -14 | i | -1 | 7 | -2.9
CN(C)c1ccc2c(c1)[C@H]1C[C@@H](CC(=O)NCc3ccc(Cl)cc3)O[C@@H](CO)[C@H]1O2 | 5.1 | i | -1 | 5 | 1.5
Cn1cc(Cc2ccc(C(=O)N3CCOCC3)cn2)c2ccccc21 | -0.4 | i | 19 | 11 | 5.5
C[C@H]1CN([C@@H](C)CO)C(=O)Cc2cc(NC(=O)Nc3ccc(F)cc3)ccc2O[C@H]1CN(C)Cc1ccc(Cl)c(Cl)c1 | 0.8 | i | -2 | 6 | -2.2
C[C@H]1CN([C@@H](C)CO)C(=O)c2cccc(NS(C)(=O)=O)c2O[C@@H]1CN(C)C(=O)Nc1ccccc1 | -2.8 | i | 4 | 12 | -1.6
N#Cc1cccc(-c2ccc([C@@H]3[C@H]4CN(Cc5ccccc5F)CCCCN4[C@H]3CO)cc2)c1 | 7.2 | i | -38 | -75 | -3.3
CC(=O)c1cccc(-c2ccc(CN3C(CC(C)C)C(=O)N(Cc4cn(CC5CCCCC5)nn4)CCS3(=O)=O)cc2)c1 (centres undefined) | 0.2 | i | 2 | -1 | -3.3
CN(C)CCCNC(=O)C[C@H]1CC[C@@H]2[C@@H](COc3ccc(NS(C)(=O)=O)cc3C(=O)N2C)O1 | -1.1 | i | 4 | 8 | -1.6
C[C@H](CO)N1C[C@H](C)[C@H](CN(C)S(=O)(=O)c2cn(C)cn2)Oc2ccc(NS(=O)(=O)c3ccc(F)cc3)cc2CC1=O | 0.2 | i | 0 | 11 | -1.6

Whole records as entered above.
`CC(C)NC(=O)Nc1cccc2c1O[C@@H](CN(C)Cc1ccc(C(=O)Nc3ccccc3N)cc1)[C@@H](C)CN([C@H](C)CO)C2=O` across the screens: AF4-AF9 inh = 0.6; FGF22 binding = +; Ecoli rRNA inh = 5; Ecoli rRNA inh OD600 = 3; Ecoli rRNA inh RFP = -3.3
`C[C@@H]1CN([C@H](C)CO)C(=O)Cc2cc(NC(=O)NC3CCCCC3)ccc2O[C@@H]1CN(C)Cc1ccc(-c2ccccc2)cc1` across the screens: AF4-AF9 inh = -2.8; FGF22 binding = i; Ecoli rRNA inh = 5; Ecoli rRNA inh OD600 = 3; Ecoli rRNA inh RFP = 1.2

The list continues:
smiles | AF4-AF9 inh | FGF22 binding | Ecoli rRNA inh | Ecoli rRNA inh OD600 | Ecoli rRNA inh RFP
C[C@H](CO)N1C[C@H](C)[C@@H](CN(C)C(=O)Nc2ccccc2)Oc2ccc(NS(C)(=O)=O)cc2CC1=O | -3.4 | i | 5 | 8 | -1.9
C[C@H](CO)N1C[C@H](C)[C@@H](CN(C)C(=O)Nc2ccccc2)OCCCC[C@H](C)Oc2ccc(NC(=O)CCC(F)(F)F)cc2C1=O | -4.0 | i | -2 | -2 | -0.4
CCCC#Cc1ccc2c(c1)O[C@H](CN(C)C(=O)NCCC)[C@H](C)CN([C@H](C)CO)S2(=O)=O | -1.9 | i | -5 | -19 | 2.0
CCCS(=O)(=O)NC(=O)C1(C)CCN(C(=O)Cc2ccc(OC)c(OC)c2)C1 (centres undefined) | -2.4 | i | 10 | 17 | 0.9
CC(C)NC(=O)C1(C)CN(S(C)(=O)=O)CC(=O)N1CCOc1ccccc1 (centres undefined) | -1.1 | i | 5 | 9 | -4.4
COc1cccc(-c2cn(CC[C@H]3CC[C@@H](NC(=O)CN(C)C)[C@H](CO)O3)nn2)c1 | -2.4 | i | 0 | 8 | 0.8
C[C@@H]1CCCCO[C@H](CN(C)CC2CCCCC2)[C@H](C)CN([C@@H](C)CO)C(=O)c2cc(NC(=O)c3ccncc3)ccc2O1 | -1.1 | i | -4 | -10 | 2.4
COCC(=O)N1CC2(C1)[C@H](c1ccc(-c3ccc(F)cc3)cc1)[C@@H](CO)N2C(=O)C1CC1 | 1.4 | i | -2 | -2 | -0.6
C[C@H]1CN([C@@H](C)CO)C(=O)c2cc(-c3ccc(F)cc3)cnc2O[C@H]1CN(C)CC1CCOCC1 | -6.0 | i | 5 | 4 | -2.4
C[C@H](CO)N1C[C@H](C)[C@H](CN(C)Cc2ccc(Cl)c(Cl)c2)Oc2c(NC(=O)c3cnccn3)cccc2C1=O | 4.7 | i | 1 | -1 | 0.1
CN1CCN(C(=O)C[C@H]2C=C[C@@H](NC(=O)Nc3ccccc3F)[C@@H](CO)O2)CC1 | -0.1 | i | 3 | 10 | 0.0
COc1ccc(C(=O)c2[nH]c(N)c(C(=O)NCCc3c[nH]c4ccccc34)c2-c2ccc(OC)c(OC)c2)cc1 | 6.5 | i | -6 | -16 | -6.4
C[C@H](CO)N1C[C@H](C)[C@H](CN(C)Cc2ccncc2)Oc2ccc(NS(=O)(=O)c3cn(C)cn3)cc2C1=O | -5.1 | i | 0 | 1 | 0.0
CN1CCN(C(=O)c2cc3c(c(-c4cccc(C#CCC5CCCC5)c4)n2)[C@H](CCO)N(S(=O)C(C)(C)C)C3)CC1 (some centres undefined) | 7.0 | i | -9 | -11 | 6.4
Cc1ccc(S(=O)(=O)N(C)C[C@@H]2OCCCC[C@@H](C)Oc3ccc(NC(=O)Nc4cccc5ccccc45)cc3C(=O)N([C@@H](C)CO)C[C@@H]2C)cc1 | 2.3 | i | 2 | 16 | 0.1
CO[C@H](CN(C)S(=O)(=O)c1cn(C)cn1)[C@@H](C)CN(C(=O)Nc1ccc(C(F)(F)F)cc1)[C@@H](C)CO | -2.0 | i | -58 | -84 | -18
CC(C)(C)OC(=O)NCc1ccc(NC(=O)c2nc[nH]c2C(=O)Nc2cc(Br)ccc2F)cc1 | -3.5 | i | 11 | 30 | -1.2
O=C(NCC1CC1)[C@@H]1[C@@H](CO)[C@@H]2Cn3c(ccc(-c4ccccc4)c3=O)[C@@H]2N1CC1CC1 | -7.5 | i | -3 | -2 | -0.3
C[C@H](CO)N1C[C@H](C)[C@H](CN(C)Cc2ccc(C(=O)O)cc2)Oc2ncc(-c3ccc(F)cc3)cc2C1=O | -2.9 | i | 3 | 9 | -3.8
CCC(CC)c1nnc(NC(=O)CSCc2c(C)noc2C)s1 | -1.0 | i | -4 | -3 | 0.7
C[C@H](CO)N1C[C@H](C)[C@@H](CN(C)C(=O)Nc2ccc(F)cc2)Oc2ccc(NC(=O)Nc3ccc(F)cc3)cc2C1=O | 0.7 | i | 1 | -4 | -0.4
C[C@H]1CCCCO[C@H](CN(C)S(=O)(=O)c2ccccc2)[C@@H](C)CN([C@@H](C)CO)C(=O)c2cc(NC(=O)CCCN(C)C)ccc2O1 | 4.9 | i | -1 | -1 | 0.7
CO[C@@H]1CN(C)C(=O)c2cc(NC(=O)c3cc(C)on3)ccc2OC[C@@H](C)N(C)C[C@@H]1C | -6.4 | i | 1 | 0 | -3.0
O=C1C(=Cc2ccccn2)CCc2ccccc21 | -1.4 | i | -5 | -1 | 2.5
COc1ccccc1S(=O)(=O)N[C@H]1CC[C@H](CC(=O)N2CCCCC2)O[C@@H]1CO | -19 | i | 0 | -7 | 3.4
CCCC#Cc1cnc2c(c1)C(=O)N([C@H](C)CO)C[C@@H](C)[C@@H](CN(C)C(=O)Cc1cccnc1)O2 | -3.9 | i | 0 | 2 | -1.6
CC(C)c1ccc(C2OC(CCc3ccccc3)Cc3[nH]c(=S)[nH]c(=O)c32)cc1 (centres undefined) | 0.2 | i | 6 | 5 | -1.6
COc1ccc(S(=O)(=O)Nc2ccc3c(c2)C(=O)N([C@@H](C)CO)C[C@@H](C)[C@@H](CN(C)Cc2ccc(C(=O)Nc4ccccc4N)cc2)O3)cc1 | 2.0 | i | 2 | -2 | 1.8
C[C@H]1CN([C@@H](C)CO)C(=O)Cc2cc(NS(=O)(=O)c3ccc(F)cc3)ccc2O[C@@H]1CN(C)Cc1ccncc1 | -0.2 | i | -2 | 0 | -0.5
O=C(C[C@H]1C=C[C@H](NC(=O)Nc2ccc3c(c2)OCO3)[C@@H](CO)O1)NCc1ccc(Cl)cc1 | 0.0 | i | -6 | -2 | -2.3
CO[C@H](CN(C)C(=O)c1ccccc1F)[C@H](C)CN([C@@H](C)CO)S(=O)(=O)c1ccccc1 | -26 | i | -2 | 9 | -2.4
COCC(=O)Nc1ccc2c(c1)C(=O)N(C)C[C@@H](OC)[C@H](C)CN(CC1CCCCC1)[C@H](C)CO2 | 3.6 | i | -5 | -3 | -0.1
COc1ccc(S(=O)(=O)N(C)C[C@@H]2Oc3cc(-c4cccc(F)c4)ccc3S(=O)(=O)N([C@@H](C)CO)C[C@@H]2C)cc1 | -1.2 | i | -3 | 7 | 0.2
C[C@@H]1CN([C@@H](C)CO)C(=O)Cc2cc(NS(=O)(=O)c3ccccc3)ccc2O[C@@H]1CN(C)S(=O)(=O)c1cccs1 | -0.8 | i | -2 | -15 | 1.4
O=C(Cc1cccnc1)N1[C@@H](CO)[C@H](c2ccccc2)[C@@H]1CNCC1CCC1 | 1.4 | i | -1 | 4 | 0.0
C[C@H]1CN([C@@H](C)CO)S(=O)(=O)c2ccc(C#CC(C)(C)O)cc2O[C@@H]1CN(C)CC1CC1 | 0.9 | i | 7 | 4 | -1.7
O=C(C[C@H]1C[C@H]2c3cc(NC(=O)c4ccc5c(c4)OCO5)ccc3O[C@H]2[C@H](CO)O1)NCc1cc(F)ccc1F | -0.8 | i | -5 | -10 | 2.7
CC(Oc1ccc(Br)cc1)C(=O)N(Cc1ccccc1)c1c(N)n(Cc2ccccc2)c(=O)[nH]c1=O (centres undefined) | 4.2 | i | 2 | -5 | 3.8
O=C(C[C@H]1CC[C@H](NC(=O)C2CC2)[C@H](CO)O1)NC1CCC1 | 0.8 | i | 3 | -1 | 2.2
COc1ccc2c3c(n(C)c2c1)[C@H](CO)N(S(C)(=O)=O)CC31CCN(C(=O)C2CCC2)CC1 | 4.9 | i | -1 | -6 | -2.0

Source: PubChem BioAssay

Only part of the results is shown, so the mix of outcomes need not match the whole.
